From PubChem
PMP22 txn prim = modulators of PMP22 gene transcription in S16 Schwann cells. S16 Pmp22-F2sN Schwann cells (luciferase reporters placed in the Pmp22 gene), FLuc/NLuc coincidence luminescence, 24 h. 43,000 tested, 2% active. Potency, µM (series often up to 57.5 µM), for inactives: at the highest dose activity change, negative = inhibition, most hits filed as inhibitors. AID 1508649; active = clear falling dose curves in both reporters; inconclusive = both reporters move, but less clearly or upward; inactive = either reporter flat; the % is the NLuc reporter signal; note: % is set by controls: 0 for no effect and ±100 for the full control effect; some results filed as inactive show a strong effect at the top dose
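Transcriptional readout in edited S16(c9) cells: two luciferases reported from the Pmp22 locus, measured in turn after 24 h compound incubation.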
HTT prom inh = inhibits huntingtin promoter activity; HEK293 HTT promoter firefly luciferase reporter (activity 0% = vehicle and -100% = no light), 24 h; Potency, µM (doses to about 57.5 µM), without a hit: at the top dose activity change, negative = inhibition, usual class: inhibitors; 48,000 tested, 0.93% active; active = well fitted inhibition curve with a large enough effect; inconclusive = small, poorly fitted or top-dose-only effect; inactive = no such curve, though single readings can be large or run the other way; note: nearly all actives have a fitted effect of over 50% in size
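HEK293 cells carrying firefly luciferase reporters were seeded at 2,500 per well in Opti-MEM and cultured for 24 h. They were then treated with compounds at up to 57.5 uM final for 24 h at 37 degrees C before Dual-Glo luminescence readout.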
An asterisk follows results filed as active; ? = inconclusive; . = no result given; & = joins results of further samples; [ ] = dose if it differs, or a comment. Potency is the fitted concentration of half-maximal effect.

Order of values – PMP22 txn prim | HTT prom inh
> CCOc1ccc(S(=O)(=O)N(CC(=O)NCCc2ccc(OC)cc2)c2ccccc2)cc1
  2.1% | -14.2%
> CCOC(=O)c1c(C)n(-c2ccccc2)c2ccc(OC(=O)c3ccccc3NC(=O)C(C)(C)C)cc12
  ? | ?
> COc1cc(NC(=O)CCNC(=O)Cn2ccc3ccccc3c2=O)cc(OC)c1OC
  8.4% | -9.2%
> CC(C)c1ccc(NS(=O)(=O)c2ccc3[nH]cc(C(=O)NCC4CCCO4)c(=O)c3c2)cc1 (centres undefined)
  3.7% | 3.0%
> COc1cc(OC)cc(-n2c(=O)[nH]c3cc(C(=O)NCCc4ccc(C)cc4)ccc3c2=O)c1
  -1.2% | -15.0%
> COc1ccc(NC(=O)C2CCCN(S(=O)(=O)c3ccc(F)cc3)C2)cc1 (centres undefined)
  5.7% | -14.5%
> CCc1ccc(-n2c(N3CCN(c4cccc(Cl)c4)CC3)nc3ccccc3c2=O)cc1
  ? | ?
> COc1ccc(-c2nnc(SCC(=O)N3CCCCC3)o2)cc1
  -4.1% | 41.2%[activator]
> COC(=O)c1c(NC(=O)/C(C#N)=C/c2ccc(OC)cc2)sc2c1CCC2
  -32.3% | 3.6%
> COc1ccc(C)cc1NC(=O)Nc1nnc(N2CCCCC2)s1
  4.7% | 4.4%
> CCc1nc2nc(C)cc(Nc3cc(Cl)ccc3C)n2n1
  ? | -29.5%
> COc1cccc(OC)c1-c1cc(C(=O)NC2(C(=O)O)C3CC4CC(C3)CC2C4)nn1-c1ccnc2cc(Cl)ccc12 (centres undefined)
  . | 5.0%
> COc1cccc(-n2nnc3c(sc4nc(C)cc(C)c43)c2=O)c1
  ? | 17.3%
> CC(=O)c1cccc(NC(=O)c2nc(-c3ccccc3)n(-c3cccc(C)c3)n2)c1
  ? | 6.8%
> COc1ccc(CNC(=O)c2cccc(NC(=O)N3CCSc4ncccc43)c2)cc1
  -16.4% | ?
> COc1ccc(NC(=O)c2ccc3c(=O)n4nc(Nc5ccccc5C)sc4nc3c2)cc1
  ? | -21.3%
> CCOC(=O)CCCN1C(=O)CCn2nc(-c3cn(C)c4ccccc34)cc21
  ? | -14.7%
> COc1ccc(N2Cc3cccc(C(=O)Nc4ccc(C(C)C)cc4)c3C2=O)cc1
  ? | 0.5%
> Cc1ccc(C2c3[nH]c4ccccc4c3CCN2C(=O)c2ccc(N(C)C)cc2)cc1 (centres undefined)
  ? | ?
> Cc1cn2c(=O)cc(COC(=O)c3ccc(NC(=O)COc4ccccc4F)cc3)nc2s1
  -2.7% | -10.1%

(next part)
Order of values – PMP22 txn prim | HTT prom inh
> CC(C)(C)OC(=O)N1CCC(c2c(C(=O)NCc3cccs3)cnn2-c2cccc(F)c2)CC1
  -21.5% | ?
> COc1ccc(CCC(=O)NC2CC(=O)N(c3ccccc3)C2)cc1 (centres undefined)
  -0.9% | -13.9%
> CCOc1ccc2oc(=O)cc(CN3CCN(C(=O)c4ccc(F)cc4)CC3)c2c1
  ? | -21.1%
> CCc1ccccc1NC(=O)Cn1cc(C(=O)c2ccc(Cl)cc2)c(=O)c2ccc(C)nc21
  -9.4% | 5.4%
> CCC(CC)C(=O)Nc1nc2c(s1)CC(C)CC2 (centres undefined)
  ? | -8.7%
> CC(=O)c1ccc(NS(=O)(=O)c2ccc3[nH]c4c(c3c2)CCCC4)cc1
  -15.8% | -0.2%
> O=C(CCc1cn(Cc2ccccc2Cl)c2ccccc12)NC1CCCCC1
  ? | ?
> Cc1cc(C)c(NC(=O)Cn2c(=O)n(Cc3ccccc3)c(=O)c3c(C)c(C(=O)N(C)C)sc32)c(C)c1
  1.1% | -22.6%
> CCOc1ccc(OC(=O)c2sc3ncn(Cc4cccc(F)c4)c(=O)c3c2C)cc1
  -52.9% | -21.1%
> COc1ccc(-c2noc(-c3ccc(N4CCCC4)c([N+](=O)[O-])c3)n2)cc1OC
  20.8% | -8.0%
> Cc1ccc(C(=O)Nc2ccccc2C(=O)O)cc1S(=O)(=O)N1CCCCCC1
  -29.8% | 11.6%
> COc1cc(C(=O)NCC(c2ccco2)S(=O)(=O)c2ccccc2)cc(OC)c1OC (centres undefined)
  -12.5% | 1.6%
> CCc1ccc(CNC(=O)c2cnc3sc(N(CC)CC)nn3c2=O)cc1
  ? | -9.5%
> CCCCn1nc(NC(=O)c2cccc(Cl)c2)c2cc3cccc(C)c3nc21
  -12.5% | 1.3%
> COc1cc2nc(NC(=O)c3ccc(S(=O)(=O)N4CCOCC4)cc3)sc2cc1OC
  17.5% | -10.9%
> Cc1nn(-c2ccccc2)c(-n2cccc2)c1C(=O)NCCCN1CCN(c2ccccc2F)CC1
  ? | ?
> CC(C)=CCC/C(C)=C/CC/C(C)=C/CCC(=O)OC/C=C(\C)CCC=C(C)C
  . | 4.7%
> Cc1cccc(C(C)C)c1NC(=O)c1ccc2c(c1)CCN2S(C)(=O)=O
  ? | ?
> COc1ccc(Cl)cc1NC(=O)CSc1cn(CC(=O)N2CCCCC2)c2ccccc12
  ? | ?
> Cc1ccc(CCNC(=O)c2cc(-c3ccccc3)n[nH]2)cc1
  -8.8% | -18.6%

(listing goes on)
Order of values – PMP22 txn prim | HTT prom inh
> CC(=O)c1cccc(NC(=O)c2cnn(-c3cccc(C)c3)c2-n2cccc2)c1
  ? | -14.2%
> CC(=O)c1cccc(N2C(=O)CN(S(C)(=O)=O)CC2(C)C(=O)NC2CCCC2)c1 (centres undefined)
  -7.8% | 12.9%
> CC(=O)Nc1ccc(S(=O)(=O)NCC2CCC(C(=O)NCCCOC(C)C)CC2)cc1 (centres undefined)
  -6.3% | 18.5%
> CCOC(=O)c1ccc(NC(=O)CC2C(=O)OCCN2CC)cc1 (centres undefined)
  ? | -0.9%
> CCc1ccc(CNC(=O)C2CCN(c3nn4cc(-c5ccc(F)cc5)nc4s3)CC2)cc1
  3.9% | -4.7%
> COc1ccc(NC(=O)c2oc3ccc(S(=O)(=O)N4CCOCC4)cc3c2C)c(OC)c1
  -2.0% | -1.1%
> COC(=O)c1cc(Cl)c(NC(=O)/C=C/c2ccc(Cl)cc2Cl)cc1OC
  -18.4% | 5.5%
> CN(C)c1ccc(-c2nc3ccccn3c2Nc2ccc3c(c2)OCCO3)cc1
  9.8% | 41.4%[activator]
> Cc1cccc(Nc2nc(-c3ccccc3)nc3ccccc23)c1
  ? | -22.7%
> CCOC(=O)c1c(C)sc(-c2c(-c3cc(C)ccc3C)[nH]c3c2c(=O)n(C)c(=O)n3C)c1O
  2.5% | -13.7%
> Cc1cccc(NC(=O)Cn2cnc(S(=O)(=O)N3CCCC3)c2)c1C
  ? | -32.8%
> COc1cccc(-c2nn(C)c3sc(C(=O)NCCc4ccc(Cl)cc4)cc23)c1
  ? | ?
> CCCCCSc1nc2sc3c(c2c(=O)n1-c1ccccc1)CCN(C(C)=O)C3
  ? | ?
> CSc1cccc(Nc2cc(C(=O)NCCCN(C)c3ccccc3)c3ccccc3n2)c1
  -20.2% | ?
> Cc1ccc2ncc(C(=O)c3ccc(C)c(C)c3)c(S(=O)(=O)c3ccccc3)c2c1
  ? | ?
> CCOC(=O)c1cc(-c2ccc(F)cc2)n(CCC(=O)Nc2nc3cc(C)c(C)cc3s2)c1C
  -40.8% | -6.2%
> Cc1ccc(Nc2c(-c3ccc(C)o3)nc3cccc(C)n23)cc1
  ? | 10.2%
> COc1ccc(CN(Cc2ccco2)C(=O)COc2ccc(Cl)cc2C)cc1
  -5.7% | ?
> COc1ccc(N2CCN(C(=O)c3ccc4c(=O)n(CCc5ccc(OC)c(OC)c5)c(=O)[nH]c4c3)CC2)cc1
  13.4µM* | ?
> CCOc1ccc(NC(=O)c2c(NCc3ccc(C)o3)sc3c2CCC(C)C3)cc1 (centres undefined)
  ? | -30.3%

2 entries drawn at random from the list so far:
Order of values – PMP22 txn prim | HTT prom inh
> COc1cc(NC(=O)CCNC(=O)Cn2ccc3ccccc3c2=O)cc(OC)c1OC
  8.4% | -9.2%
> COC(=O)c1c(NC(=O)/C(C#N)=C/c2ccc(OC)cc2)sc2c1CCC2
  -32.3% | 3.6%

The listing continues.
Order of values – PMP22 txn prim | HTT prom inh
> COC(=O)c1ccc(Cl)cc1NC(=O)NC(C)c1c(-n2cccc2)sc(C)c1C (centres undefined)
  ? | -27.5%
> CCOc1ccc(CNC(=O)Cn2ncc3c(=O)oc4ccc(C)cc4c32)cc1
  1.0% | 5.4%
> Cc1ccccc1C(=O)NCCc1csc(-c2ccc(C(F)(F)F)cc2)n1
  -20.2% | ?
> CC1(COc2ccc3c(c2)ncn3-c2ccc3cccc(N4CCC(N)CC4)c3n2)COC1
  . | ?
> CCCc1nnc(NC(=O)c2nc(SCC)ncc2Cl)s1
  8.4% | -2.5%
> COCCCNC(=O)c1ccc(NC(=O)c2nsc3ccccc23)cc1
  -3.0% | ?
> Cc1ccc(-c2nc3ccccn3c2Nc2ccc3c(c2)OCO3)cc1
  ? | -7.6%
> Cc1ccc(S(=O)(=O)NCCc2nnc3ccc(SCc4cccc(F)c4)nn23)cc1
  -27.7% | -14.2%
> COc1ccc(S(=O)(=O)Cc2ccc(C(=O)NC3CCCCC3)o2)cc1
  -33.5% | -34.8%
> CCOc1ccccc1OCCCCn1c(-c2ccc(Cl)cc2)nc2ccccc2c1=O
  4.0% | -5.4%
> COC(=O)c1ccc(Cn2c(SCC(=O)NCc3ccccc3)nc3ccccc32)cc1
  ? | -7.0%
> CCc1cccc(C)c1Nc1c(-c2cccc(O)c2)nc2nc(C)cc(C)n12
  ? | -29.1%
> CCOc1ccc(CC(=O)Nc2c(C(=O)c3ccc(F)cc3)oc3ccccc23)cc1OCC
  7.9% | -7.5%
> COP(=O)(OC)OC(c1ccc(Cl)cc1)P(=O)(OC)OC (centres undefined)
  . | 6.5%
> CCc1ccc(Nc2nn(-c3ccc(OC(F)(F)F)cc3)nc2C(C)=O)cc1
  -0.5% | 1.7%
> O=C1CCSC2(C(=O)N(Cc3ccc(F)cc3)c3ccccc32)N1c1cccc(F)c1 (centres undefined)
  ? | -29.1%
> Cc1c(C(=O)N(C)c2ccccc2)sc2nc(-c3ccc(F)cc3)cn12
  ? | 22.6%
> CC(Sc1nc(=O)cc(N)n1CCc1ccccc1)C(=O)Nc1ccccc1C#N (centres undefined)
  16.6% | 16.1%
> O=C(Nc1ccc(-n2nncc2-c2ccccc2)cc1)c1cccc(F)c1
  -16.2% | ?
> COc1ccc(-n2c(=O)c3c(c4cc(OC)ccc4n3C)n(Cc3c(F)cccc3Cl)c2=O)cc1
  -35.6% | 1.5%

The listing continues:
Order of values – PMP22 txn prim | HTT prom inh
> CCCC(=O)Nc1ccc2nc(SCCOc3ccccc3)sc2c1
  -93.8% | -6.3%
> COc1ccc(CCNc2ncnc3c2nnn3C)cc1
  ? | ?
> Cn1c(=O)n(C)c2cc(N3CCOCC3)c(NS(=O)(=O)c3cccc(C#N)c3)cc21
  6.0% | 13.8%
> COc1ccc(S(=O)(=O)c2cn(C)c3cc(N4CCOCC4)c(F)cc3c2=O)cc1
  -6.0% | -13.2%
> Cc1cccc(CCNC(=O)c2c[nH]c3ccc(S(=O)(=O)Nc4ccccc4F)cc3c2=O)c1
  ? | 22.4µM*
> Clc1cccc(-c2nnc(CN3CCN(c4ccccn4)CC3)o2)c1
  8.2% | 3.7%
> Cc1cccc(NC(=O)CC2C(=O)OCCN2Cc2ccccc2)c1 (centres undefined)
  -5.9% | -36.8%
> CCCCOc1ccc(C(=O)Nc2ccc(-c3nc4ccccc4s3)cc2C)cc1
  -4.2% | 41.1%[activator]
> Cc1ccc(NC(=O)C2CCN(S(=O)(=O)c3ccc4[nH]c(=O)ccc4c3)CC2)cc1C
  0.0% | -9.5%
> CCOC(=O)c1c(C)[nH]c(C)c1S(=O)(=O)NCC(=O)NCc1cccc(C)c1
  31.7% | -15.3%
> CCOc1ccc(-c2cc(NC(=O)Nc3ccccc3Cl)c(C(=O)OC)s2)cc1
  ? | 92.7%[activator]
> COc1ccccc1C(=O)Nc1cccc(C(=O)OCc2cc(=O)n3ccsc3n2)c1
  -11.5% | -7.1%
> C[C@]12CC[C@@H]3c4ccc(O)cc4CC[C@H]3[C@H]1C[C@@H](O)[C@H]2O
  . | -30.4%
> COc1ccc(C)cc1NC(=O)Cn1c(=O)oc2cc(S(=O)(=O)NCc3ccccc3)ccc21
  -4.8% | ?
> Nc1ccc(S(=O)(=O)Nc2ccccn2)cc1
  . | 9.4%&-1.1%
> Cc1ccc(C)c(NC(=O)C2CCCN(S(=O)(=O)c3cccc4nsnc34)C2)c1 (centres undefined)
  ? | -23.5%
> Cc1ccc(C(=O)c2oc3ccccc3c2NC(=O)COc2ccc(C(C)(C)C)cc2)cc1
  -3.4% | 9.3%
> O=C(C1CCC(Cn2c(=O)c3sccc3n(Cc3ccccc3)c2=O)CC1)N1CCOCC1 (centres undefined)
  ? | -21.7%
> Cc1cccc(OC(=O)c2snnc2C)c1C
  6.0% | -15.8%
> CCN(CC)C(=O)CSc1nc2cc3c(cc2c(=O)n1CCCC(=O)NCc1ccc2c(c1)OCO2)OCO3
  -0.3% | -18.7%
> Cc1cc(C)cc(NC(=O)C2CCN(S(=O)(=O)c3cccc4nonc34)CC2)c1
  -16.4% | -4.0%
> CCCN1CCN(c2ncnc3sc(C(=O)Nc4ccc(OC(F)(F)F)cc4)c(C)c23)CC1
  ? | -20.8%
